# Vaccinia pol inh = blocks vaccinia virus processive DNA synthesis. in vitro processive DNA synthesis, absorbance read-out; active compounds read low; some inactives read as strong as hits. normalized absorbance, % (test concentration not listed). 46,000 tested, 0.94% active. AID 493162;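 active = replicate mean up to 90% and picked by the depositor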;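 also: 100% = median of the test wells of a plate; 100 nL library stock went into each well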
# Active calls of the source: *. These rows are one share of the data, so the mix of outcomes need not match the whole.
compound | Vaccinia pol inh
CNc1cc(C(F)(F)F)nc(-c2ccccn2)n1 | 106.5
COc1ccc(C(=O)Sc2nnnn2-c2ccccc2)cc1 | 99.8
COc1ccc(OC)c(S(=O)(=O)/N=C/N(C)C)c1 | 82.2
COC(=O)c1ccc(CSc2ccc3nnc(-c4ccc(Cl)cc4)n3n2)o1 | 93.7
CC(C)CN(CC(C)C)C(=O)Nc1ccccc1C(F)(F)F | 101.0
CCN(CC)c1ncc(C#N)c(N)n1 | 111.2
N#Cc1c(N)nc(CCc2ccccc2)c(C#N)c1N | 96.8
CC12CC3(C)CC(C)(C1)CC(C(=O)O)(C2)C3 | 102.9
Cc1cc2ccccc2n1CCNC(=O)C(C)Oc1ccccc1 (stereo unspecified) | 98.6
Cn1c(=O)c2c(nc(SCC(=O)c3ccccc3)n2CCCc2ccccc2)n(C)c1=O | 100.6
CC(C)(C)c1csc(-c2ccc(S(=O)(=O)N3CCOCC3)cc2)n1 | 102.8
CCOc1ccccc1N=C1NC(=O)CS1 | 99.7
Cc1ccc(-c2nn(-c3ccccc3)cc2/C=C2\SC(=S)NC2=O)cc1 | 90.9
O=C(NCCC1=CCCCC1)c1ccc2snnc2c1 | 96.6
CN1C(C(=O)Nc2ccccn2)=C(O)c2sccc2S1(=O)=O | 102.4
CC1(C)C=Cc2cc(OCC(=O)O)ccc2O1 | 99.3
CC(=O)NC(C)c1nc2ccccc2n1Cc1ccccc1 (stereo unspecified) | 100.5
O=C(CC(SCc1ccco1)c1ccc(F)cc1)c1cccs1 (stereo unspecified) | 100.3
COc1ccc(OC)c(/C=C\C(=O)NCC(=O)O)c1 | 111.3
CCOC(=O)c1sc(COc2ccc3nonc3c2)nc1C | 104.6
COc1cccc(Nc2ncnc3c2cnn3-c2ccccc2)c1 | 101.1
CCOc1ccc(NC(C)=O)cc1Br | 107.3
COC(=O)C1=C(O)/C(=C\c2cc(C)n(-c3ccc(OC)c(Cl)c3)c2C)N=C1C | 99.8
COc1cc2[nH]c(=O)c(C(=O)NCCCc3ccccc3)c(O)c2cc1OC | 101.6
Cc1ccc2nc(Cl)c(CC3CC(c4ccccc4)=NN3C(=O)CCCC(=O)O)cc2c1 (stereo unspecified) | 99.9
CCOC(=O)c1nc(N)c(=O)n(-c2ccc(C(=O)O)cc2)n1 | 100.1
Cc1ccc(NC(=O)c2cc3ccccc3oc2=O)cc1C | 100.4
CC(C)CNc1cc(Cl)c2noc3c2c1C(=O)c1ccccc1-3 | 93.1
O=C(CCn1c(=O)sc2ccccc21)Nc1ccccc1 | 99.4
O=c1[nH]cnc2nn(-c3ccccc3)nc12 | 99.9
CCOC(=O)C1CCCN(C(=O)COc2ccccc2F)C1 (stereo unspecified) | 95.1
CCCC1C2CC(C)CC=C2C(C#N)=C(N)C1(C#N)C#N (stereo unspecified) | 100.1
CC(C)(C)c1ccc(NC(=O)COC(=O)c2ccc(F)cc2F)cc1 | 103.3
COc1ccccc1Oc1ccc(S(=O)(=O)NCc2ccco2)cc1 | 98.8
CCC(C)NC(=O)c1c(-c2c(F)cccc2Cl)noc1C (stereo unspecified) | 101.5
Cc1ccc(/C=C/C(=O)NC(=S)N2CCN(c3ccc(F)cc3)CC2)cc1 | 100.4
Cc1cc(C)c(OC2CN(C(c3ccccc3)c3ccccc3)C2)c(C)c1 | 99.6
CCOC(=O)N1CCN(C(=S)NC(=O)c2ccc(F)cc2)CC1 | 100.2
COc1ccccc1-n1cc(-c2ccccc2)c2c(SCC(C)C)ncnc21 | 96.5
S=C(NCc1ccccc1)NC(Cc1ccccc1)c1ccccc1 (stereo unspecified) | 100.1
CCN(C(=O)CSc1ccc(Br)cc1)c1ccccc1 | 98.3
O=C(/C=C/c1ccccc1)OCc1nc2ccccc2s1 | 105.5
c1ccc2c(c1)NC(CN1CCOCC1)CO2 (stereo unspecified) | 108.2
COc1ccc(-c2nn(CCC(=O)O)c3nc(C)cc(C)c23)c(OC)c1 | 73.7
COC(=O)c1ccc2c(c1)N(CC(=O)N1CCOc3ccc(C)cc31)C(=O)CS2 | 93.2
CCOc1ccc2c(c1)C1C=CCC1C(c1ccc(C(=O)OC)cc1)N2 (stereo unspecified) | 104.7
CCOC(=O)COc1ccc(-c2nn[nH]n2)cc1 | 104.9
CCCn1cnc2cc(NCc3ccccc3O)ccc21 | 99.1
CNC(=O)/C(=C\c1ccc(Cl)cc1)NC(C)=O | 101.7
O=C(NC(=S)OCc1ccccc1Cl)c1ccco1 | 107.2
CC1CC(C)CN(C(=O)Cn2c(=O)n(-c3ccc(Cl)cc3)c(=O)c3c4c(sc32)CCC4)C1 (stereo unspecified) | 95.4
COC(=O)c1ccc(CN2CCN(c3ccccc3OC)CC2)cc1 | 99.8
COc1ccc(NC(=O)c2oc3ccccc3c2NC(=O)c2ccccc2)cc1 | 97.4
O=C(COC(=O)Cc1cccc(C(F)(F)F)c1)NCc1ccccc1Cl | 102.6
O=S(=O)(c1ccc(-c2nc(-c3ccc(Cl)cc3)cs2)cc1)N1CCOCC1 | 104.0
C=CCn1c(=O)c2c(C)c(C)sc2n2c(Nc3ccc(C(=O)OCC)cc3)nnc12 | 98.0
COc1ccc2c3c(ccc2c1)C(=O)CCC3 | 98.3
Cc1cccc(C)c1N=C1Oc2ccccc2NC1(C)c1ccccn1 (stereo unspecified) | 101.9
CN(C)C(=O)c1c(-c2ccccc2)oc2ccc(O)cc12 | 99.8
CC(C)c1ccc(NC(=S)N(Cc2ccccc2)C(C)C)cc1 | 101.3

# Retrieved one by one from the list above (5):
compound | Vaccinia pol inh
Cc1cccc(C)c1N=C1Oc2ccccc2NC1(C)c1ccccn1 (stereo unspecified) | 101.9
O=C(NC(=S)OCc1ccccc1Cl)c1ccco1 | 107.2
COC(=O)c1ccc(CN2CCN(c3ccccc3OC)CC2)cc1 | 99.8
O=C(COC(=O)Cc1cccc(C(F)(F)F)c1)NCc1ccccc1Cl | 102.6
CCC(C)NC(=O)c1c(-c2c(F)cccc2Cl)noc1C (stereo unspecified) | 101.5

# New compounds follow
compound | Vaccinia pol inh
CCC(=O)N1c2ccccc2-c2nnc(SC)nc2OC1c1ccccc1 (stereo unspecified) | 99.8
CC1CCCC(C)N1C(=O)Cn1cc(/C=C2/C(=O)Nc3ccccc32)c2ccccc21 (stereo unspecified) | 112.1
C=C1C(O)(c2ccccc2)C2CC[N+]1(C)CC2 (stereo unspecified) | 100.1
CC[N+](CC)(CC)CCOc1cccc(OCC[N+](CC)(CC)CC)c1OCC[N+](CC)(CC)CC | 97.3
CC(C)COc1ccc(C(=S)N2CCCCC2)cc1 | 99.2
Cc1csc(-c2cc3ccc(O)c(CN4CCCC4)c3oc2=O)n1 | 87.4
CCN(CC)c1ccc(NC(=O)c2ccc(Cl)s2)cc1 | 101.9
Cn1c(O)c(C=NC23CC4CC(CC(C4)C2)C3)c(=O)n(C)c1=O | 100.5
O=S(=O)(/N=C\c1cc(Br)ccc1O)c1cccs1 | 95.1
CCCCC/C=C\C/C=C\C/C=C\C/C=C\CCCC(=O)NCc1ccc(O)c(OC)c1 | 98.7
CNC(=O)C1CC(=O)N(C2CCCCCC2)C1 (stereo unspecified) | 109.8
CC(=NC(C)C)C1=C(O)CCC1=O | 100.3
Cc1cc(N2CCC(C)CC2)nc2ccc(NC(=O)CCC(=O)N3CCC(C)CC3)cc12 | 100.9
CC(=O)Oc1cc2oc(=O)c3c(c2cc1Cl)CCC3 | 100.1
CCOc1ccc(NC(=O)C2c3ccccc3Oc3ccccc32)cc1 | 100.3
O=C(/C=C/c1ccco1)OCc1ccccc1 | 99.2
CN(C(=O)CCc1nc2ccccc2s1)c1ccccc1 | 91.3
Cc1ccc(-c2c(C(=O)O)c3ccccc3[nH]c2=O)cc1 | 113.7
CCCCc1nc2ccccc2n1CC(=O)Nc1ccccc1C | 99.5
Cc1ccc(NC(=S)Nc2cccc(C(F)(F)F)c2)cc1NS(C)(=O)=O | 92.0
CN1CCc2c(sc3c2C(=O)NC(c2ccc(OC(=O)c4ccccc4Cl)cc2)N3)C1 (stereo unspecified) | 98.9
CCc1nc2ccccc2n1CCOc1ccccc1 | 93.5
CCOC(=O)c1sc(NC(=O)C(CC)OC(=O)c2c3c(nc4ccccc24)CCC3)nc1C (stereo unspecified) | 102.4
S=c1[nH]nc(CCCc2n[nH]c(=S)o2)o1 | 100.0
C(=N\c1nc2ccccc2[nH]1)/N(c1ccccc1)c1ccccc1 | 99.9
Brc1ccc(-c2nn3c(-c4ccccc4)nnc3s2)cc1 | 95.2
Cc1oc(C(C)(C)C)cc1C(=O)NC1Cc2ccccc2C1 | 105.6
COc1ccccc1C(=O)Nc1nnc(-c2cccc(C)c2)s1 | 100.5
Cc1ccc(-n2cccc2)c(NC(=O)C(c2ccccc2)C2CCCC2)c1 (stereo unspecified) | 81.6
COc1ccc(C(N)CCc2ccc(C)o2)cc1 (stereo unspecified) | 105.0
CC1Cc2scc[n+]2-c2ccccc2N1C=O (stereo unspecified) | 96.1
O=C(c1ccco1)c1cn(-c2ccccc2)nc1C(=O)c1nc2ccccc2s1 | 100.7
O=C(NCn1nnc(-c2ccncc2)n1)c1ccccc1 | 97.6
CC(Nc1nc(-c2ccccc2)c2cc(Br)ccc2n1)C(=O)O (stereo unspecified) | 99.6
Cc1ccc(C(F)(F)C(F)(F)c2ccccc2-c2nn[nH]n2)cc1 | 92.9
Cc1ccc(C(=O)NC(C)Cc2cccs2)c(C)c1 (stereo unspecified) | 103.3
CSc1nc(C)cc(=O)[nH]1 | 106.6
Clc1ccc(-c2csc3[n+]2CCS3)cc1 | 101.5
O=C(OC1CCOC1=O)c1cccc(Cl)c1Cl (stereo unspecified) | 96.8
COc1ccc(CNC(=O)c2cc(=O)[nH]c3ccc(S(=O)(=O)N4CCCCC4C)cc23)cc1 (stereo unspecified) | 102.8
O=C(c1cn(-c2ccccc2)nc1-c1cccs1)N(CCO)Cc1ccccc1 | 105.1
CC1CCCCN1C(=O)CSc1ccc2ccccc2c1 (stereo unspecified) | 73.2*
Clc1ccccc1-c1nnc(-c2ccncc2)o1 | 116.2
COc1ccc(OC)c(NC(=O)CCC(=O)O)c1 | 95.2
O=C1/C(=C/c2ccc(O)cc2)SC(=S)N1CCc1ccccc1 | 100.1
CCOc1ncccc1C(=O)Nc1cccc(Cl)c1Cl | 96.8
CCCc1c(C)[nH]c2nc3ccccc3n2c1=O | 99.7
O=C(O)CC(c1ccc(Cl)cc1)N1C(=O)CCC1=O (stereo unspecified) | 92.9
Cc1nn2c(=O)cc(CSc3nc4ccccc4[nH]3)nc2s1 | 91.1
CC1Cc2ccccc2N1C(=O)C12CCC(C)(C(=O)O1)C2(C)C (stereo unspecified) | 99.9
CSc1nnc2c(n1)OC(C)N(C(C)=O)c1ccccc1-2 (stereo unspecified) | 100.2
Cc1nn(C)c(C)c1/C=C/C(=O)C(C)(C)C | 101.6
Cc1ccc(C(=O)c2c(NC(=O)c3ccncc3)sc3c2CCCC3)cc1 | 103.7
Cc1cc(Nc2ccc(Cl)cc2)n2c(nc3ccccc32)c1C#N | 100.5
C=C(C)CNC(=S)Nc1scc(-c2ccsc2)c1C(=O)OCC | 104.5
CC1CCCN(C(=O)C(Cc2ccccc2)NS(=O)(=O)c2ccc3c(c2)CCC(=O)N3)C1 (stereo unspecified) | 99.0
O=C(Nc1ccc(Br)cc1F)C1CCC1 | 91.6
FC(F)(F)c1cccc(NC2=NCCCS2)c1 | 106.6
CCCC(=O)NCc1ccc2[nH]c3c(c2c1)CCCC3 | 97.7
COc1cc(/C=C/C(=O)NCCn2ccc3ccccc32)cc(OC)c1OC | 94.7

# Additional records.
compound | Vaccinia pol inh
CNC(=O)c1cc(C#N)c(SC)s1 | 90.1
c1cc(C23CC4CC(CC(C4)C2)C3)ccc1CN1CCOCC1 | 100.2
O=C(COc1ncnc2ccccc12)NCCC1=CCCCC1 | 76.3
COc1ccc(-c2noc(CC(=O)N3CCCCCC3)n2)cc1 | 103.5
CCSc1nnc(NC(C)=O)s1 | 100.2
COC(=O)C1=C(NC(=O)Cc2ccccc2)CCS1 | 99.9
COc1cccc(-c2noc(-c3ccc(Br)o3)n2)c1 | 101.3
CC(Sc1ccc(Br)c2cccc(C(=O)O)c12)C(=O)O (stereo unspecified) | 99.7
Clc1ccc(-c2ncnn2-c2ccc(Br)cc2)cc1 | 99.6
COc1cccc2sc(=NC(=O)C3CCCCC3)n(C)c12 | 101.0
C=CCn1c(CCn2c3ccccc3c3ccccc32)n[nH]c1=S | 100.0
Cc1ccc(-[n+]2cc(Cl)on2)cc1 | 97.4
Cc1ccc(S(=O)(=O)c2n[nH]n3c2nc(=O)c2ccccc23)cc1 | 100.9
O=C(OCc1ccc(Cl)cc1Cl)c1ccc2ccccc2n1 | 97.2
O=C(CCC1CCCC1)Nc1ccc(-c2nnc3n2CCCCC3)cc1 | 98.5
CC1CCc2cc(F)cc3c(=O)c(C(=O)O)cn1c23 (stereo unspecified) | 100.3
CS(=O)(=O)Nc1cccc(C2=NN(C(=O)c3ccco3)C(c3ccccc3F)C2)c1 (stereo unspecified) | 92.9
CCc1ccccc1N(C)C(=O)CCn1c(=S)oc2ccccc21 | 87.7
COc1ccc(C(N)c2ccccc2)cc1 (stereo unspecified) | 100.5
CC(=O)Nc1ccc2c(c1)nc1n2CCN(C2CCCCC2)C1 | 100.0
CCOc1ccc2c(c1)n(CO)c(=S)n2CO | 99.7
CCOC(=O)c1c(NC(=O)COc2ccccc2OC)sc2c1CCCC2 | 104.3
Cc1cccc(C)c1NS(C)(=O)=O | 99.3
COC(=O)c1cc(N2CC(C)(C)C2=O)cc(N2CC(C)(C)C2=O)c1 | 82.1
CN(C(=O)COc1ccc(Br)cc1)C1CCS(=O)(=O)C1 (stereo unspecified) | 103.0
Cc1oc(C(C)(C)C)cc1C(=O)Nc1ccc(C(C)C)cc1 | 94.5
O=C(c1ccccc1)N(c1ccccc1)c1ccccc1 | 100.0
Cc1cnc(C(=O)Nc2nn[nH]n2)cn1 | 85.0
Cc1ccc(NC(=O)N2CCC(O)C2)cc1 (stereo unspecified) | 100.8

# Screens deposited in PubChem BioAssay by ICCB-Longwood Screening Facility, Harvard Medical School.
